Screens deposited in PubChem by several laboratories.
Rce1 inh – blocks yeast Ras-converting enzyme. Q03530. yeast membranes, quenched prenylated peptide cleavage fluorescence. calls only. 290,000 tested, 0.27% active. AID 2563;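 active means fall in fluorescence gain of 50% or more versus controls, with final raw signal at or below 3038400; inconclusive means same 50% fall but final raw signal above 3038400; inactive means fall in fluorescence gain under 50%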;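 further: plate controls were neutral control wells for no effect and wells lacking membranes for full effect; tested at 10 µM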
Target sequence (Q03530 whole entry, looked up): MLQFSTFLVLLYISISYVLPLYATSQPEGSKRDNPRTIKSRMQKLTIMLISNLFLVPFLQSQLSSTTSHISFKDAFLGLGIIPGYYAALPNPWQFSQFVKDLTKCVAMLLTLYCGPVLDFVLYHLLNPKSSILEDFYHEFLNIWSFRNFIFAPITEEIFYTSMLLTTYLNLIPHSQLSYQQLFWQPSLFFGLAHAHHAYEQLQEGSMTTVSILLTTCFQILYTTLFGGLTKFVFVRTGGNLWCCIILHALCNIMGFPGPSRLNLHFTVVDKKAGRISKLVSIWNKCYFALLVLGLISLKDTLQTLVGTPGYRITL
eIF4H inh – inhibitors of RNA binding by human eIF4H; eIF4H fluorescence polarization binding assay; inhibition, % at 35 µM; 290,000 tested, 0.94% active; AID 2012;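 active means 50% or more with normal probe brightness, or confirmed in later tests; inconclusive means above 50% with abnormal brightness, or retests that disagree; inactive means below 50% or failed in later tests; about a fifth of its hits are not listed in these tables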;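 further: calls also rest on retests at 20 µM and on dose response follow-up; 0% = protein and probe with vehicle and 100% = probe without protein; strong numbers were not always called active; many hits fall short of the cut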
HIV Env fusion – blocks HIV Env-driven cell-cell fusion; HeLa-JRFL Env/CEM21 cell fusion, luciferase; inhibition, % at 12.3 µM; 360,000 tested, 1.1% active; AID 651610;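 active means mean replicate inhibition score of at least 50 and every replicate individually at or above 50; inconclusive means only one of the two criteria met; inactive means mean below 50 and not all replicates reaching 50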;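 further: 0% = plate neutral controls and 100% = maraviroc near 300 nM; one replicate is shown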
MT1-MMP act inh – MT1-MMP (human) activation inhibition; 360,000 tested, 0.061% active; HT1080 RFP-PRO-GFP cells, GFP/RFP ratio fluorescence, overnight; percent of plate control window, DMSO zero; P50281; GFP/RFP ratio change, % at 20 µM;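 active means GFP/RFP ratio change of at least 30% with cell ATP level not reduced by more than half and red fluorescence within 50% of control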; further: strong numbers were not always called active
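Material: RFP-PRO-GFP reporter HT1080 cells. Dosing: single-point 20 µM compound, 1% DMSO. Controls: DMSO and RFP-L50D-GFP cell wells. Timing: cells overnight before dosing, compound overnight, 37 °C, 5% CO2. Measure: GFP/RFP fluorescence ratio.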
CSC inhib – cancer stem cell inhibition. cancer stem cell-like cells viability, luminescence. inhibition, % at 7.5 µM. 300,000 tested, 1.1% active;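 active means mean at 75% or more and at least half the replicates too; inconclusive means mean and replicates disagree; tested in HMLE shEcad cells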;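 further: 0% = median of negative and 100% = median of positive control wells; the first replicate is given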
Yeast UUG start – alters start codon recognition fidelity in yeast. S. cerevisiae UUG-firefly luciferase reporter, luminescence/redox ratio. activity score, % at 18.7 µM. 350,000 tested, 0.13% active;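 active means replicate mean at a twofold rise or more, about +100% in these data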;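 further: firefly luciferase made from a UUG start codon reports start codon fidelity; reporter light over untreated wells divided by growth signal over untreated wells; some hits fall short of that in this replicate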
PABP FP inh – blocks human PABP binding to poly(A) RNA | AID 2014 | 290,000 tested, 1% active | inhibition, % at 35 µM | P11940 | fluorescence polarization;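 active means 50% or more with normal probe brightness, or confirmed in later tests; inconclusive means above 50% with abnormal brightness, or retests that disagree; inactive means below 50% or failed in later tests; about a fifth of its hits are not listed in these tables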;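 further: calls also rest on retests at 20 µM and on dose response follow-up; controls were probe without protein and protein plus probe with vehicle; some compounds called inactive have numbers as strong as hits; many hits fall short of the cut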
Target sequence (P11940 whole entry, looked up): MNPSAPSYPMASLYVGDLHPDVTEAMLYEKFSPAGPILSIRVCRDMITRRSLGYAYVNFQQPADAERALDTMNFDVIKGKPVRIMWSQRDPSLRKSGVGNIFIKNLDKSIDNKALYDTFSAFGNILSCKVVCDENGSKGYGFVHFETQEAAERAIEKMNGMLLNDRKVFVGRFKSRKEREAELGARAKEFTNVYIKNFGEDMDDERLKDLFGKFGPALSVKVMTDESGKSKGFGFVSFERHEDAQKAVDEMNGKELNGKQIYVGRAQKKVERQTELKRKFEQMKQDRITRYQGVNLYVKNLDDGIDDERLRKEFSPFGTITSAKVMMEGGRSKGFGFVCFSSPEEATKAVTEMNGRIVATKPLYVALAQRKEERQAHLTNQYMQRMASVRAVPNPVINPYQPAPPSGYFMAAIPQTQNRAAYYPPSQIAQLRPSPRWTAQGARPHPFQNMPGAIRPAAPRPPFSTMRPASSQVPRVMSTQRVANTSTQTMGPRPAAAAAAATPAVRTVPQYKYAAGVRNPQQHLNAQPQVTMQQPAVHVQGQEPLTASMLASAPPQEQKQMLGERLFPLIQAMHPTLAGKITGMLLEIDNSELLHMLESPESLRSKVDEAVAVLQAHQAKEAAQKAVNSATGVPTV
MT1-MMP act inh RFP – recorded beside MT1-MMP act inh, whose call it bears; RFP signal change, %; measured here: RFP expression control read;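 0 = vehicle wells; hits needed this value within 50% of zero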
* = called active by the depositor; i = inactive; ? = inconclusive; . = not tested or not shown; + = active, no number; & = joins results of further samples. This is a random part of the collection; 2.9% or so of the library scored in one or more.

SMILES	Rce1 inh	eIF4H inh	HIV Env fusion	MT1-MMP act inh	MT1-MMP act inh RFP	CSC inhib	Yeast UUG start	PABP FP inh
O=C1OC(CN(Cc2ccccc2)Cc2ccccc2)CN1N=Cc1ccc([N+](=O)[O-])o1 (stereo unspecified)	.	.	83*	-13	-6	.	-2	.
CC(C)(C)c1ccc(OCC(=O)NNC(=O)C2CCCO2)cc1 (stereo unspecified)	i	4	10	2	3	-10	.	0
CCOC(=O)c1cnc(SC2CC(=O)N(c3ccc(OC)c(OC)c3)C2=O)nc1N (stereo unspecified)	i	-7	-42	1	6	-4	-13	2
COc1ccc(/C=C/C(=O)NCCCc2ccccc2)cc1	i	-4	9	-1	4	-10	.	6
Cc1nn(-c2ccccc2)c(=O)c2ccccc12	i	7	6	2	3	5	.	35
CCOC(=O)Cc1cc(-c2ccc(O)cc2)nc2ccc3ccccc3c12	i	-14	?	6	-3	58	.	8
CCOc1ccc(-n2c(O)cc(=O)[nH]c2=O)cc1	i	23	-2	-5	6	-8	.	-20
COC(=O)c1sccc1-c1ccc(/C=N/OC(=O)c2ccccc2)o1	i	?	-272	6	3	-14	-11	?
CC(=O)Oc1ccc([C@@H]2COc3c(ccc4c3C=CC(C)(C)O4)C2)c(OC(C)=O)c1	.	.	.	2	-12	-6	-17	.
Cc1ccc(S(=O)(=O)Oc2ccccc2-c2ccccc2)cc1	.	.	60*	-8	-11	.	-1	.
O=C(Nc1nc2ccccc2[nH]1)c1ccc(Cl)c(S(=O)(=O)N2CCCC2)c1	i	16	.	-6	-21	12	.	8
Cc1ccc(Cn2c(C(C)Nc3nc(C)cs3)nc3cc(Cl)c(Cl)cc32)cc1 (stereo unspecified)	i	.	2	.	.	16	.	.
O=C(CN1C(=O)/C(=C\c2ccccc2Br)Oc2ccccc21)NCCCN1CCOCC1	i	-3	4	2	3	-11	-7	0
Cc1ccc2cccc(SCC(=O)NCc3ccco3)c2n1	i	9	-21	-9	-1	-16	-21	-11
Cc1cc(C)n(CCCNC(=O)c2ccc(S(=O)(=O)NCc3ccco3)cc2)n1	i	0	8	6	6	5	-7	-4
O=C(Nc1sc2c(c1CN1CCOCC1)CCC2)c1ccc(F)cc1	i	27	9	-7	1	-5	-9	-10
O=C(N/N=C/c1cn(-c2ccccc2)nc1-c1cc2ccccc2o1)c1cccnc1	.	0	-152	-5	-7	59	.	-3
C=CCN1C(=O)c2ccc(C(=O)NCC(c3ccccc3)N(C)C)cc2C1=O (stereo unspecified)	i	8	.	1	2	-9	-12	-3
CSCCC(NC(=O)COc1ccccc1)C(=O)NC1CCC(C)CC1 (stereo unspecified)	i	.	i	-2	1	.	-2	.
CC1=NNC(=O)C1CC(=O)N/N=C/c1sccc1C (stereo unspecified)	i	-6	-3	-1	1	-5	0	-7
Cc1ccc(C(=O)NCC(=O)OCc2nnc(-c3ccccc3)o2)cc1	i	-11	-133	1	3	-11	-17	-8
O=C(CNC(=O)c1ccc(Br)o1)Nc1cccc(-c2cnc3ccccc3n2)c1	i	3	.	13	0	-1	-11	-6
Cc1ccc(C(C)C)c(OCC(=O)NNC(=O)C(C(C)C)N2C(=O)c3ccccc3C2=O)c1 (stereo unspecified)	i	1	-10	3	3	-5	.	11
CCCNCc1cc(OC)c(OCC(=O)NCCc2ccccc2)cc1Br	i	1	-31	0	-3	6	.	-2

Filtered by structure: the entries above containing bromine (three)
SMILES	Rce1 inh	eIF4H inh	HIV Env fusion	MT1-MMP act inh	MT1-MMP act inh RFP	CSC inhib	Yeast UUG start	PABP FP inh
O=C(CN1C(=O)/C(=C\c2ccccc2Br)Oc2ccccc21)NCCCN1CCOCC1	i	-3	4	2	3	-11	-7	0
O=C(CNC(=O)c1ccc(Br)o1)Nc1cccc(-c2cnc3ccccc3n2)c1	i	3	.	13	0	-1	-11	-6
CCCNCc1cc(OC)c(OCC(=O)NCCc2ccccc2)cc1Br	i	1	-31	0	-3	6	.	-2

Whole records as entered above. Values in the order: Rce1 inh | eIF4H inh | HIV Env fusion | MT1-MMP act inh | MT1-MMP act inh RFP | CSC inhib | Yeast UUG start | PABP FP inh
Cc1ccc(C(=O)NCC(=O)OCc2nnc(-c3ccccc3)o2)cc1 as listed: i | -11 | -133 | 1 | 3 | -11 | -17 | -8
O=C(CN1C(=O)/C(=C\c2ccccc2Br)Oc2ccccc21)NCCCN1CCOCC1 as listed: i | -3 | 4 | 2 | 3 | -11 | -7 | 0
Cc1cc(C)n(CCCNC(=O)c2ccc(S(=O)(=O)NCc3ccco3)cc2)n1 as listed: i | 0 | 8 | 6 | 6 | 5 | -7 | -4
O=C(Nc1sc2c(c1CN1CCOCC1)CCC2)c1ccc(F)cc1 as listed: i | 27 | 9 | -7 | 1 | -5 | -9 | -10

Further compounds.
SMILES	Rce1 inh	eIF4H inh	HIV Env fusion	MT1-MMP act inh	MT1-MMP act inh RFP	CSC inhib	Yeast UUG start	PABP FP inh
CCn1c(SCC(=O)NCCc2ccc(F)cc2)nnc1-c1cccs1	i	-3	-16	-1	-1	-11	-15	0
O=C(NCc1ccco1)c1cnn2c(C(F)(F)F)cc(-c3ccco3)nc12	i	9	.	-4	-6	-5	.	-2
CCC12C(=Nc3c(Cl)cccc31)C[C@@H]1CCN3C(=O)CCC[C@H]2[C@H]13 (stereo partly specified)	.	.	19	-3	3	.	2	.
CC1CCN(C(=O)C2CCN(S(=O)(=O)c3ccc(-n4cnnn4)cc3)CC2)CC1	+	6	-5	-3	-9	-2	-15	10
COCCNc1nc(Cl)c(C#N)s1	i	-2	-4	-2	3	4	.	-6
O=C1CC(c2ccccc2)=C(c2ccccc2)C1	.	.	-5	-1	1	.	-15	.
CN(C)C1(CNC(=O)c2cccc(S(=O)(=O)NCc3ccccc3)c2)CCCCC1	.	.	12	0	1	-5	.	.
COc1cc(OC)c(NC(=O)CCNC(=O)Cn2cnc3ccccc3c2=O)cc1Cl	i	-4	.	-2	-6	.	-6	4
CC(=O)c1c(C)c(C)c2n1CCn1c(C)ccc1-2	i	?	-10	-12	6	1	13	?
Nc1ccc2nc(-c3cccnc3)[nH]c2c1	i	-8	-17	6	1	.	.	2
COc1ccc(N(C)S(=O)(=O)c2cccc(C(=O)Nc3nc4ccccc4[nH]3)c2)cc1	i	11	8	8	-3	10	-19	-10
CCOC(=O)CSc1nc2cc3c(cc2cc1C#N)OCCO3	i	39	-401	-10	8	-8	.	13

In another format: 2 of the compounds above
Structure | Rce1 inh | eIF4H inh | HIV Env fusion | MT1-MMP act inh | MT1-MMP act inh RFP | CSC inhib | Yeast UUG start | PABP FP inh
CCOC(=O)CSc1nc2cc3c(cc2cc1C#N)OCCO3 | i | 39 | -401 | -10 | 8 | -8 | . | 13
CN(C)C1(CNC(=O)c2cccc(S(=O)(=O)NCc3ccccc3)c2)CCCCC1 | . | . | 12 | 0 | 1 | -5 | . | .

Remaining list, next part.
SMILES	Rce1 inh	eIF4H inh	HIV Env fusion	MT1-MMP act inh	MT1-MMP act inh RFP	CSC inhib	Yeast UUG start	PABP FP inh
CC(Oc1ccc2ccc(=O)oc2c1)C(=O)NCCCn1ccnc1 (stereo unspecified)	i	-2	-3	2	3	-14	-28	3
CN(C(=O)Nc1ccc(Cl)cc1)n1cnc2ccccc2c1=O	i	-15	4	-1	-4	-2	-8	-3
O=C(Cc1cccc2ccccc12)Nc1ccc(Br)cc1C(=O)O	i	-1	-14	1	6	64	4	14
CCOc1cc(N2CCOCC2)c(OCC)cc1NC(=O)c1ccc2ncsc2c1	.	.	.	-1	0	2	-16	.
O=S(=O)(c1ccc2c(c1)oc1ccccc12)N1CCOCC1	i	4	44	-2	-10	-11	-21	5
CC(C)c1cccc(C(C)C)c1NC(=O)CNCC(O)c1ccccc1 (stereo unspecified)	i	9	1	-6	-4	-10	-4	8
C=CCN(c1ccc(F)cc1)S(=O)(=O)c1cc(C(=O)NC2CCC(O)CC2)ccc1Cl (stereo unspecified)	.	.	38	6	-2	.	2	.
O=C(OC(C(=O)NCc1ccccc1)c1ccccc1F)c1ccco1 (stereo unspecified)	i	5	0	0	1	.	-9	-3
Cc1ccc(OC(=O)c2ccccc2P(=O)(O)O)cc1	i	-10	.	0	-5	8	-15	4
Cc1ccc(S(=O)(=O)N(CC(=O)Nc2ccccc2C(=O)O)c2ccc(Cl)cc2)cc1	i	7	10	0	3	1	-1	-1
C=CCn1c(SCC(=O)Nc2cc(C)nn2-c2ccccc2)nnc1C1CCCCC1	.	3	-7	0	3	-3	-17	-4
COc1ccc(Cc2nc(C(=O)Nc3ccc(Cl)cc3)cs2)cc1	i	0	.	4	-13	-4	-6	0
CCCS(=O)(=O)NC(=O)C1(C)CCN(C(=O)c2sccc2C)C1 (stereo unspecified)	.	.	8	-2	4	.	-26	.
CCC(=O)NC(=S)Nc1cccc(NC(=O)c2ccccc2C)c1	i	4	14	-1	2	3	.	-13
Cc1ccc(N=Nc2ccc(O)c3ncccc23)cc1C	i	13	-341	11	-11	1	-7	1
Cc1ccc(Cl)c(OCC(=O)NCC(c2cccs2)N2CCOCC2)c1 (stereo unspecified)	i	.	?	-4	-25	2	4	.
CC1CCCCC1NC(=O)COC(=O)c1ccc(S(=O)(=O)N2CCOCC2)cc1 (stereo unspecified)	i	-3	.	-4	1	4	-10	15
COc1cc(C(CCN2CCCC2)c2c(OC)cc(OC)c3c(C)cc(=O)oc23)cc(OC)c1OC (stereo unspecified)	i	-6	-22	3	2	-15	-2	-4
COc1ccc(N2CCN(Cc3nc(N)nc(N4CCCc5ccccc54)n3)CC2)cc1	i	4	-16	7	8	20	-2	0
CCn1c(C)nc([N+](=O)[O-])c1C(=O)O	i	-2	-24	0	2	1	-3	-18
O=C(NC1CCCCC1)c1ccc(CNc2c(N3CCOCC3)c(=O)c2=O)cc1	i	-1	-15	-1	4	12	-8	-1
CC1CCCCC12NC(=O)N(CC(=O)Nc1ccc(N3CCOCC3)cc1)C2=O (stereo unspecified)	i	-6	.	5	8	-3	.	5
CC(C)(C)c1ccc(Cn2cnc(-c3ccc([N+](=O)[O-])cc3)c2)cc1	i	-5	.	-6	-27	.	-15	-1
Cc1ccc(NC(=O)CC(N)=S)cc1	i	-4	3	-4	0	4	.	-3
CSCC(=O)N1CCCC(CO)(Cc2ccccc2C)C1 (stereo unspecified)	i	-5	4	3	5	5	.	-3
COCCc1ccc(OCC(O)CNC(C)C)cc1 (stereo unspecified)	i	1	0&-7	3&2&-1	3&0&1	14&-3	-2&-5&-1	-2
COc1ccc(N2CCN(C(=O)CSc3nnc4ncccn34)CC2)cc1	i	-6	-5	-4	1	-6	1	-9
Cn1c(=O)[nH]c(=O)c2c1nc(SCC(=O)O)n2Cc1ccccc1	i	-9	10	-2	-2	-11	-13	9
Cc1ccc(S(=O)(=O)N(C)c2ccc(OCC(=O)Nc3cccc(-n4cnnn4)c3C)cc2)cc1	i	-5	22	-1	-4	-2	-1	4
O=C(Nc1cc(Cl)ccc1Oc1ccccc1)c1ccc(F)cc1	i	-6	15	2	2	14	-28	1
CC(/C=C/c1ccccc1)=N/O	i	3	.	4	1	-5	-18	2
CCC(C)N(C)C(=O)c1cc2ccccc2c(-c2ccccc2Cl)n1 (stereo unspecified)	i	-8	13	0	3	8	1	7
COc1cc(OC)cc(C(=O)N[C@H](C(=O)NCc2cccs2)C(C)C)c1	i	1	-14	-6	-6	-8	-30	-3
